NPYLR7 agonist: mosquito NPYLR7 agonism; HEK293T NPYLR7/Galpha15, GCaMP6s calcium fluorescence; activation, % at 10 µM; 270,000 tested, 0.15% active; AID 1259423; in the data active means activation above about 40%;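 further: 0% = vehicle and 100% = reference agonist at the receptor; some compounds past the cut are filed as inactive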
NPYLR7 agonist max-min: recorded beside NPYLR7 agonist, whose call it bears; activation, %; measured here: Max-Min RFU normalised activation; some inactives read as strong as hits;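 span of the calcium signal over five minutes; 0% = vehicle and 100% = native peptide agonist; compound fluorescence can raise it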
* hit, by the source's call; & = joins results of further samples. Some of the compounds tested. The share of hits here may be higher or lower than overall.

Each structure is followed by: NPYLR7 agonist	NPYLR7 agonist max-min
CCCCNC(=O)N1CCN(c2cc(Oc3ccc(F)c(Cl)c3)ncn2)CC1C (centres undefined)
    -9	-1
CN(C)CCNc1cc(-c2cnc3ccccc3c2)c2cc[nH]c2n1
    1	-3
O=C(Cc1cc(-c2cc3ccccc3o2)on1)NCc1cccs1
    9	12
Cc1cc(C)cc(-c2nc3ccccn3c2NC(=O)COc2ccccc2)c1
    -5	-2
CC1(C(=O)Nc2ccccc2F)CCN1C(=O)C/C=C/c1ccccc1 (centres undefined)
    -6	1
COc1cccc(-c2cnc(-c3ccc(CNC(=O)c4ccc(F)cc4)cc3)[nH]2)c1
    -2	1
O=C(Nc1ccc(F)c(S(=O)(=O)N2CCOCC2)c1)C1(c2ccccc2)CC1
    3	7
Cc1nc2c(C)cccn2c(=O)c1NC(=O)c1ccc2ccccc2c1
    -2	-1
O=C(NC1CC1)c1c(O)c2c([nH]c1=O)CCCC2
    9	4
O=C1CN(S(=O)(=O)Cc2ccccc2)CC(O)CN1Cc1cccs1 (centres undefined)
    23	31
O=C(Nc1ccccc1F)c1cc2ccc(O)cc2oc1=O
    -2	-8
CN1CCN(n2c3c(c(SCC(=O)NCc4ccc(F)cc4)nc2=O)CCC3)CC1
    -1	-5
Cc1cc(C)cc(CC(=O)N2CCC2(C)C(=O)NS(=O)(=O)c2cc(C)ccc2F)c1 (centres undefined)
    2	1
Cc1ccc(CN(Cc2ccc3c(c2)OCO3)C(=O)CN(CCN2CCOCC2)C(=O)NCc2ccccc2)o1
    -4	1
COC(=O)c1ccc(CNC(=O)CN2CCc3c([nH]c4ccccc34)C2)o1
    21	12
Cc1ccc(S(=O)(=O)NCc2cn(Cc3ccccc3)nc2-c2ccccc2)cc1
    7	8
S=c1[nH]c2c(n1-c1ccccc1)CCCC2
    -3	-6
Fc1ccc(COc2ccccc2CNc2nn[nH]n2)cc1
    -10	-15
O=C(c1cccs1)N(CCN1CCOCC1)c1nc2ccc(F)cc2s1
    16	12
COc1ccc(CNC(=O)c2cn(Cc3cccc(F)c3)c(=O)s2)cc1OC
    2	1

Next part
Each structure is followed by: NPYLR7 agonist	NPYLR7 agonist max-min
COc1ccc(N=Cc2c(O)n(-c3ccccc3)c(=O)c3ccccc23)c(OC)c1
    -3	-9
CC(C)NC(=O)CN(C)Cn1nc(C(F)(F)F)n(C)c1=S
    5	2
CCN1CCC(N(C)C(=O)Cn2cc(Br)ccc2=O)C1 (centres undefined)
    2	-3
Cc1ccc(CN(Cc2ccc(F)cc2)CC(O)Cc2ccccc2)c(C)c1 (centres undefined)
    30	30
CCSc1nnc2c(n1)OC(/C=C/c1ccccc1)Nc1ccccc1-2 (centres undefined)
    -2	-6
Cc1ccc(C2CC(C)CCN2C(=O)NCCCS(C)(=O)=O)o1 (centres undefined)
    8	6
Cn1c(=O)[nH]c(=O)c2c1nc(N1CCN(CCO)CC1)n2Cc1ccccc1
    -2	-4
CN(CCc1cnn(C)c1)C(=O)c1coc(CN2CCN(c3ccccc3F)CC2)n1
    10	6
Cc1ccccc1C(=O)N1C(C(=O)NC2CC2)COC12CCN(C(=O)CC(C)C)CC2 (centres undefined)
    1	9
CCOC(=O)Cc1csc(NC(=O)c2ccco2)n1
    -12	-16
COc1ccccc1N1CCN(C(=O)NC(C)c2ccncc2)CC1 (centres undefined)
    0	0
O=C(CCC(=O)N1CCc2ccccc2C1)NCc1ccc2c(c1)OCO2
    -13	-18
CC(C)=Cc1nc(C2(c3ccc(F)cc3)CCOC2)no1 (centres undefined)
    5&-2	2&-3
OCCNc1nc(CSc2ccc(Cl)cc2)nc2sc3c(c12)CCC3
    1	0
C=CCN(CC(=O)N(Cc1ccc2c(c1)OCO2)Cc1sccc1C)C(=O)Nc1ccccc1
    -2	1
COCCOCC(=O)N1CCOc2c(O)cc(-c3ccc(C)cc3)cc2C1
    10	1
CC(C)NC(=O)c1nn2c(C(F)(F)F)cc(-c3cccs3)nc2c1Br
    -4	-8
Cc1c(Br)c(C(F)(F)F)nn1CC(=O)N1CCCCC1C (centres undefined)
    -2	-6
CC(C)C[C@@H](N)C(=O)N(C)Cc1cnn(-c2ccc(F)cc2)c1
    1	7
CCS(=O)(=O)N(C)[C@@H]1c2cc(C#N)ccc2OC(C)(C)[C@H]1O
    -12	-17

Next section, overlapping the part above by six compounds.
Each structure is followed by: NPYLR7 agonist	NPYLR7 agonist max-min
C=CCN(CC(=O)N(Cc1ccc2c(c1)OCO2)Cc1sccc1C)C(=O)Nc1ccccc1
    -2	1
COCCOCC(=O)N1CCOc2c(O)cc(-c3ccc(C)cc3)cc2C1
    10	1
CC(C)NC(=O)c1nn2c(C(F)(F)F)cc(-c3cccs3)nc2c1Br
    -4	-8
Cc1c(Br)c(C(F)(F)F)nn1CC(=O)N1CCCCC1C (centres undefined)
    -2	-6
CC(C)C[C@@H](N)C(=O)N(C)Cc1cnn(-c2ccc(F)cc2)c1
    1	7
CCS(=O)(=O)N(C)[C@@H]1c2cc(C#N)ccc2OC(C)(C)[C@H]1O
    -12	-17
CC(NC(=O)C1CC(=O)N(C)C1)c1ccc(F)c(Cl)c1 (centres undefined)
    -1	-2
CCOc1cnn(Cc2ccccc2)c(=O)c1Nc1cccc(C(=O)N2CCN(C)CC2)c1
    5	11
C=C(C)CNC(=S)Nc1ccccn1
    0	-5
COCCN(Cc1nc(C(=O)N2CCN(c3ccccc3OC)CC2)cs1)C(=O)Nc1c(C)cccc1C
    -8	-21
O=C(Nc1ncc(C(F)(F)F)[nH]1)C1CCCC1
    3	0
Cc1cc(N2CCN(Cc3ccncc3Cl)CC2)c2ccccc2n1
    8	4
COc1nc(-c2ccccc2C)n(-c2cccc(NC(=O)C(C)C)c2)n1
    9	20
COc1ccc(NC(=O)NCCS(=O)(=O)c2c(C)n(Cc3ccccc3)c3ccccc23)cc1
    6	11
Cc1cc(C)c(Cc2c(C)cc(C)c(C#[N+]O)c2C)c(C)c1C#[N+]O
    -17	-23
O=C(CC(NCCCN1CCOCC1)C(=O)O)Nc1ccccc1 (centres undefined)
    6	4
Cn1nc(C(=O)Nc2nccs2)ccc1=O
    -2	7
Cc1ccsc1-c1cc(C(=O)O)cc(S(=O)(=O)NCc2ccccn2)c1
    5	4
COc1ccc2c(c1)CCCN2C(=O)NCC(c1ccco1)N(C)C (centres undefined)
    -3	-4
O=C(NCCN1CCN(c2ncccn2)CC1)C12CC3CC(CC(C3)C1)C2
    -30	-35
COc1ccc(S(=O)(=O)NCCc2csc3nc(-c4cccs4)nn23)cc1
    -4	-4
CCOC(=O)CCCC(=O)N1CC(=O)N2CCc3cc(OC)c(OC)cc3C2C1 (centres undefined)
    21	6
Cc1cc(C)n(Cc2c(F)cccc2Cl)c(=O)n1
    -15	-22
CNC(=O)c1nnc2n1CCN(C(=O)c1ccc3occc3c1)C2
    9	4
COc1ccccc1-c1n[nH]c(=S)n1-c1ccc(Cl)c(Cl)c1
    -3	5
CCc1c(-c2ccccc2)[n+](=O)c(-c2ccc(Br)cc2)c(C)n1[O-]
    -3	-7

Additional entries.
smiles	NPYLR7 agonist	NPYLR7 agonist max-min
Cc1cc([N+](=O)[O-])nn1CC(=O)NCc1ccc(F)cc1C(F)(F)F	-3	-6
COc1ccc(NC(=O)c2nnc(Cn3cnc(C#N)n3)s2)cc1	9	6
Cc1noc([C@@H]2Cc3nc[nH]c3CN2)n1	-10	-10
CCCc1nn(C)c(CCC)c1C(=O)NCc1cccnc1	15	11
CC(SCc1ccccc1)C(=O)NN=C1CCN(C)CC1 (centres undefined)	-9	-18
CCOC(=O)C(c1cccc(OC)c1)C1C=CC(NC(=O)c2ccc(C(F)(F)F)c(F)c2)C1 (centres undefined)	6	6
CCCOc1nc(-c2cccc(OC)c2)n(-c2ccc(NC(=O)c3ccco3)cc2)n1	17	20
Cc1cc(C)c(NC(=O)CN(C)C(=O)Nc2ccc(OCC(F)(F)F)nc2)c(C)c1	1	13
COc1ccccc1CCN1CCC(CN(C)C(=O)c2cccnc2)CC1	0	-2
O=C(NCCCN1CCOCC1)c1cc2n(n1)CCN(Cc1ccc(Cl)c(Cl)c1)C2=O	21	13
COC(=O)c1cn(C(=O)COc2cc(C)cc(C)c2)c2ccccc12	0	-4
C=C(C)CSc1nnc(NC(=O)Cc2ccccc2)s1	-4	-1
COc1ccc(C)cc1N1CCN(C(=O)NC(C)(C)C)C(C)C1=O (centres undefined)	0	6
CC1ON=C(c2ccccc2F)N(Cc2ccccc2)C1=O (centres undefined)	0	-2
COc1ccc(C(=O)Nc2c(C)nc3ccccn3c2=O)cc1OC	4	3
CSc1ccccc1C(=O)NCc1cc(-c2ccc3c(c2)CC(C)O3)on1 (centres undefined)	-1	-3
COc1cccc(OCc2ccccc2)c1C(=O)Nc1ccccc1Nc1ccccc1	-8	-12
CCC1CN(CC(=O)Nc2nc(C)c(C)s2)CCN1CCOC (centres undefined)	-1	-11
COc1ccccc1-c1c(C)nn2c(NC(C)c3ccccc3)cc(C)nc12 (centres undefined)	1	12
CCC(CO)N=Cc1cccc(O)c1 (centres undefined)	-10	-18

(list continues)
smiles	NPYLR7 agonist	NPYLR7 agonist max-min
CCOc1ccc(C(=O)n2nc(C)c(Sc3ccccc3)c2C)cc1	-6	-10
COc1ccc(CSCc2csc(-c3ccc(Cl)cc3)n2)cc1	-4	-15
C=CCOn1c(=O)c(-c2cccc([N+](=O)[O-])c2)[n+]([O-])c2ccccc21	-11	-15
CN(Cc1ccccc1)c1cc(-c2ccccc2)nc(SCc2ccc(C(=O)N3CCCC3)o2)n1	-1	1
COCCN(Cc1ccc(F)cc1)CC(O)COc1ccccc1 (centres undefined)	18	27
COc1ccc(C(=O)N(Cc2ccccc2)C2CCC(NC(=O)C3CCN(C(=O)COc4ccccc4)CC3)CC2)cc1 (centres undefined)	14	27
COc1ccc(NC(=O)CSc2nc(N)c(NC(=O)c3ccc(Cl)cc3)c(=O)[nH]2)cc1	-6	-5
CCc1cc(-c2cc(F)c3c(c2)CC(CN)O3)nc(N2CCOCC2)n1 (centres undefined)	4	3
CN(CC(=O)Nc1sccc1C#N)Cc1ccc(Br)s1	13	10
Cn1cnc2nc(N3CCCCC3)[nH]c(=O)c21	-3	1
CCOC(=O)C1(CCc2ccccc2)CCN(C(=O)c2cc[n+]([O-])cc2)CC1	5	2
Cc1ncccc1OC1(C(=O)NCCNc2ccccc2)CCNCC1	5	3
O=S(=O)(CCNCc1c(F)cccc1F)N1CCOCC1	1	7
COc1ccc(C(=O)NC2CCC(NC(=O)[C@H]3CCCN3C(=O)c3ccc(OC)cc3OC)CC2)cc1 (some centres undefined)	0	3
CCCc1nn(-c2ccccc2Cl)c(C)c1C(=O)NC1CC1	-6	-1
COc1ccccc1NC(=O)N(Cc1cccc(OS(=O)(=O)c2ccc(F)cc2)c1)C1CC1	4	13
Cc1cc(NS(=O)(=O)Cc2cccc(C(F)(F)F)c2)n(C)n1	1	0
O=C(NCCC(=O)N1CCN(S(=O)(=O)c2ccccc2)CC1)c1ccccc1	1	-3
FC(F)(F)c1cc(NCC2CC2)c2ccccc2n1	0	0
Cc1occc1CNC(=O)C(c1ccccc1)N1CCCCC1=O (centres undefined)	-2	-1

An excerpt from the list above, for reference:
smiles	NPYLR7 agonist	NPYLR7 agonist max-min
CN(Cc1ccccc1)c1cc(-c2ccccc2)nc(SCc2ccc(C(=O)N3CCCC3)o2)n1	-1	1
COCCN(Cc1ccc(F)cc1)CC(O)COc1ccccc1 (centres undefined)	18	27
COc1ccc(C(=O)N(Cc2ccccc2)C2CCC(NC(=O)C3CCN(C(=O)COc4ccccc4)CC3)CC2)cc1 (centres undefined)	14	27
COc1ccc(NC(=O)CSc2nc(N)c(NC(=O)c3ccc(Cl)cc3)c(=O)[nH]2)cc1	-6	-5

Following part
smiles	NPYLR7 agonist	NPYLR7 agonist max-min
CCOC(=O)c1ccc(NC(=O)c2cccc(S(=O)(=O)N(CC)CC)c2)cc1	0	0
CCN=C1SC(CC(=O)Nc2ccccc2C#N)C(=O)N1CC (centres undefined)	-1	-2
O=C(CSc1nn2cnnc2s1)N(C1CCCCC1)C1CCCCC1	0	-3
COCc1c(Br)c(C)nc(OCC(=O)N/N=C\c2ccc(O)cc2)c1C#N	-11	-13
CC1CC(N(C)C(=O)COc2ccc3cc(Br)ccc3c2)CCN1C (centres undefined)	0	-1
Cc1cccc(OCc2nc(CN(CCN(C)C)C(=O)C3CCCC3)cs2)c1	14	27
CC(NC(=O)CSc1nnc(NC2CCCCC2)s1)c1ccco1 (centres undefined)	12	2
c1cc(NC2CCCCCC2)c2cccnc2c1	1	1
COc1ccc(CCN(C)S(=O)(=O)c2ccc(OC)c(N3CCN(C(=O)c4cc(C)oc4C)CC3)c2)cc1OC	17	7
CCOC(=O)C1(Cc2ccccc2C(F)(F)F)CCN(C(=O)c2cc(C(C)=O)n[nH]2)CC1	19	9
CN1CC2(CCCN(C(=O)C3(c4ccc(F)cc4)CC3)C2)OC1=O (centres undefined)	3	0
Cc1c(Cl)cccc1N1CCN(C(=O)COc2ccc(Cl)cc2)C(C)C1=O (centres undefined)	-1	12
O=C(NS(=O)(=O)c1ccccc1)N1CCC2(CCNCC2)C1	1	1
CCCC(O)CN(Cc1c(-c2ccccc2)nn(C)c1Oc1ccc(Cl)cc1)C1CC1 (centres undefined)	6	12
COc1ccc(C2CC(=O)C3C(=Nc4ccccc4NC3c3cccs3)C2)cc1 (centres undefined)	0	-2
CC(NC(=O)OCc1ccccc1)C(=O)NC1CCN(CC(=O)Nc2ccccc2)CC1 (centres undefined)	13	17
Cc1ccc(C(=O)NCCSc2ncc(-c3ccccc3)[nH]2)cc1	1	-1
O=C(CCn1ccc(=O)[nH]c1=O)NCc1cc(-c2ccco2)on1	-3	-6
CCc1ccc(C(=O)N(CC(=O)N(CCc2ccccc2)Cc2ccco2)C(C)C)cc1	-7	-4
Cc1oc(-c2ccc(-c3ccccc3)cc2)nc1CN1CCCN(C(=O)c2ccco2)CC1	8	-6

Retrieved one by one from the list above, two records:
smiles	NPYLR7 agonist	NPYLR7 agonist max-min
c1cc(NC2CCCCCC2)c2cccnc2c1	1	1
CCN=C1SC(CC(=O)Nc2ccccc2C#N)C(=O)N1CC (centres undefined)	-1	-2

Bioassay records from PubChem BioAssay.
